Bioassay records (PubChem)
FGF22 binding – binders of recombinant human FGF22 by thermal shift; Q9HCT0; AID 651658; calls only at 9.99 µM; actives 1.5% (n = 340,000); SYPRO orange fluorescence; percent of sucrose octasulfate shift, DMSO zero;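 active = melting point raised past a set limit in the mean and every replicate; inconclusive = no clear call; three in four hits are not shown here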
Target sequence (Q9HCT0 whole entry, looked up): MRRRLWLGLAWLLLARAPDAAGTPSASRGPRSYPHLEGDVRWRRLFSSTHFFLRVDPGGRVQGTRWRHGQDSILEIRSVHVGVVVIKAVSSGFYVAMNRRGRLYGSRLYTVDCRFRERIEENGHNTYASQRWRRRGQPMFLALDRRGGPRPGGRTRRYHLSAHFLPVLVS
Beta cell apopt – beta cell apoptosis inhibition; INS-1E cytokine-induced death, ATP luminescence, 48 h; percent of positive-control rescue, neutral wells zero; protection from apoptosis, % (no concentration beside the values); actives 0.8% (n = 300,000); AID 435005;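 active = all replicates at 75% or more, or half of them and the mean; inconclusive = half reach 75% but not the mean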;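 also: 0% = cytokine-treated negative control wells and 100% = positive control rescue; higher means more ATP so stronger rescue from cytokine killing; wells of about 40 µL received 100 nL stock; the first replicate is given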
AF4-AF9 inh – MLL-AF4/AF9 protein interaction inhibition; actives 0.47% (n = 350,000); AlphaScreen, biotin-AF4 peptide binding to FLAG-AF9; inhibition, % at 10 µM;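 active = every replicate reaching a set inhibition limit, whatever the replicate mean, cut at about 25% in these data; inconclusive = mean inhibition reaches that limit but some replicates miss it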;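 also: 0% = plate neutral control median and 100% = total signal loss; the record names both 10 and 1 µM as test concentration; the first replicate is given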
Target sequence (P42568 whole entry, looked up): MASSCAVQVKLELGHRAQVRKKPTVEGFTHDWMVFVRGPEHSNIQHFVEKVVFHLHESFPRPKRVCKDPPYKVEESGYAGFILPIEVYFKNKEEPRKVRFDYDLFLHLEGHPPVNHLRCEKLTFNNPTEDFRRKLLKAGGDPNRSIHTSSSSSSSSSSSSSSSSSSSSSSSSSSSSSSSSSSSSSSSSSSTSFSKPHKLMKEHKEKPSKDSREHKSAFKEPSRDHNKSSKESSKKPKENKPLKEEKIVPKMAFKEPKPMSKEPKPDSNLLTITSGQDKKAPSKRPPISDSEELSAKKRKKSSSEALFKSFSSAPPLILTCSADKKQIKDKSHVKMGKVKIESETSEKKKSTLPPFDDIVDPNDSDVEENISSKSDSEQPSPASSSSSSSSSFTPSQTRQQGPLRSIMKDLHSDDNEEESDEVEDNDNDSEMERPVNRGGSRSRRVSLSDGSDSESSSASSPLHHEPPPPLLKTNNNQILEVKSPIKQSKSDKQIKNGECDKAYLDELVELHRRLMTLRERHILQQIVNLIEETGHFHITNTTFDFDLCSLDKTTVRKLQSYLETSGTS
T cruzi repl – blocks replication of Trypanosoma cruzi. T. cruzi beta-gal in NIH3T3, luminescence, 90 h. inhibition, % (concentration not given with the values). actives 1.4% (n = 300,000). AID 1885;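 active = mean inhibition across valid replicates above about 55%, limit read from the data; inconclusive = mean below that limit but half or more replicates reach it; inactive = mean below it, under half of replicates reach it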;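 also: signal also drops with host cell toxicity which is not excluded here; 0% = plate median of DMSO wells and 100% = zero luminescence signal; higher percent means less beta-gal luminescence so fewer parasites; stock transfer was 50 nL into about 50 µL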
UCH37 DUB inh – inhibitors of human deubiquitinating enzyme UCH37. Q9Y5K5. purified proteasome/UCH37, Ub-AMC cleavage fluorescence. inhibition, % (concentration not given with the values). actives 0.33% (n = 330,000). AID 588478;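 active = mean of two replicates above 20%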;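 also: 0% = compound-free wells with enzyme and 100% = wells lacking proteasome; stock transfer was 100 nL into about 20 µL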
Target sequence (Q9Y5K5 whole entry, looked up): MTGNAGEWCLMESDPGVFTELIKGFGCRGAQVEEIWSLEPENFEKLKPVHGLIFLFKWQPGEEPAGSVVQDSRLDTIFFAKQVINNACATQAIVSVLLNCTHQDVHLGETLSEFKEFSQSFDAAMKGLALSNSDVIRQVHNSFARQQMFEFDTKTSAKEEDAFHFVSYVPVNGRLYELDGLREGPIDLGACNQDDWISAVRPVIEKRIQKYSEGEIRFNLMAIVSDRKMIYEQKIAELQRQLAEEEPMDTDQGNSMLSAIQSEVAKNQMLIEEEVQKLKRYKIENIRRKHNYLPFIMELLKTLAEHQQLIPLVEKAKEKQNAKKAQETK
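Signal – fluorescence, ex 355 nm, em 460 nm · System – Proteasome-bound UCH37 · Input – 0.15 nM proteasome as dispensed · Timing – 30 min preincubation with enzyme, 25 min cleavage at room temperature · Read-out basis – percent inhibition of cleavage signal versus uninhibited and no-proteasome wells · Medium – Tris-HCl pH 7.4 with ATP-MgCl2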
E coli growth – E. coli growth inhibition | OD600 absorbance (test concentration not listed) | actives 0.21% (n = 330,000) | Escherichia coli growth, OD600, 23 h; hits give low values;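 active = OD600 absorbance below the run mean of sample wells minus 3.6 SD, in any replicate, cut at about 0.56 in these data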;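 also: stock transfer was 300 nL into about 60 µL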
rRNA inh HTS – selective bacterial rRNA inhibition in E. coli | E. coli WT GFP vs humanized-ribosome RFP mutants, fluorescence, 24 h; hits give low values; DMSO median 0, no signal -100 | GFP signal change (wild-type ribosome), % (test concentration not listed) | actives 1.6% (n = 350,000) | AID 720706;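 active = significant combined selectivity score with lowered wild-type GFP, culture density cut under 30%, mutant RFP and density less affected; inactive = any of these conditions unmet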; also: one replicate is shown; some compounds called inactive have numbers as strong as hits
Bfl-1 A1 inh – inhibitors of the anti-apoptotic protein A1, read as caspase activation; AID 2462; actives 0.066% (n = 330,000); caspase activation, % (concentration not given with the values); MEF A1-2A-BIM cells, Caspase-Glo 3/7 luminescence, 3 h; percent of clofoctol response, vehicle zero;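 active = over half of replicate activation scores above 10%, or exactly half above 10 with the replicate mean above 10; inconclusive = replicate mean below 10 yet half the replicates above 10; inactive = over half of replicates below 10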;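 also: wells of about 30 µL received 50 nL stock; many hits fall short of the cut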
rRNA inh HTS OD600 – also measured in rRNA inh HTS; calls as there; OD600 change, %; measured here: OD600 growth;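 optical density of the mix in the first replicate; 0 = DMSO median and -100 = no signal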
rRNA inh HTS RFP – recorded beside rRNA inh HTS, whose call it bears; RFP signal change, %; measured here: RFP humanized mutant strains;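 first replicate; 0 = DMSO median and -100 = no signal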
Active calls of the source: *; i = inactive; ? = inconclusive; / = not tested or not shown; + = active, no number.

SMILES | FGF22 binding | Beta cell apopt | AF4-AF9 inh | T cruzi repl | UCH37 DUB inh | E coli growth | rRNA inh HTS | rRNA inh HTS OD600 | rRNA inh HTS RFP | Bfl-1 A1 inh
O=C(NCc1ccc2c(c1)OCO2)C(=O)NCC1OCCN1S(=O)(=O)c1ccccc1 (stereo not given) | i | -6.9 | -1.1 | 1.8 | -2.0 | 0.752 | 5.2 | 8.0 | -0.1 | 1.8
CN(C)c1ccc(S(=O)(=O)c2ccc(Cl)cc2)cc1 | / | 4.8 | / | -6.6 | -30.7 | 0.63 | / | / | / | -0.4
COCCCn1c(=O)c2sccc2n(Cc2ccccc2C)c1=O | i | / | 0.2 | 2.1 | 5.0 | 0.668 | -14.4 | -8.7 | -12.9 | -0.9
Cc1ccc(C)c(OCC(=O)Nc2ccc3c(c2)OCO3)c1C | / | 6.2 | / | 0.5 | 1.7 | 0.662 | / | / | / | 2.3
Cn1c(-c2ccc(F)cc2)cnc1SCC(=O)Nc1ccccc1N1CCOCC1 | / | 2.3 | / | -9.4 | 3.0 | 0.702 | / | / | / | -2.0
COc1cccc(NC(=O)C2CCC(CNS(=O)(=O)c3cccc4cccnc34)CC2)c1 (stereo not given) | i | -4.9 | -2.6 | 11.6 | 5.3 | 0.699 | -26.3* | -8.8* | 6.8* | -0.3
CC(C)CC1NC(=O)c2ccccc2-n2c1nc1ccc(F)cc1c2=O (stereo not given) | i | -5.2 | 1.4 | / | / | / | 18.1 | 12.8 | -1.0 | 0.2
Cc1cc(NC(=O)c2ccc(-c3ccccc3F)o2)no1 | i | 5.3 | -1.9 | -0.7 | -1.3 | 0.709 | 14.0 | 11.8 | 2.1 | -1.6
CN(CC(=O)Nc1ccccc1Cl)C(=O)COC(=O)c1ccc(C(F)(F)F)cc1 | i | 0.1 | -1.0 | / | 1.3 | 0.689 | 2.7 | 7.2 | 1.3 | 0.1
CC[C@@H](C)[C@@H](C(=O)N1CCN(C(=O)OC(C)(C)C)CC1)n1cc(CCC(=O)O)nn1 | i | -4.1 | -3.0 | -10.8 | -1.1 | / | 6.1 | 13.6 | 7.0 | -0.9
Cc1nn(-c2ccccc2)c2sc(C(=O)N3CCOCC3)cc12 | / | -9.6 | / | -4.8 | 4.3 | 0.722 | / | / | / | 0.6
CCc1nnc(NC(=O)c2sc3nc4c(cc3c2N)CCCCC4)s1 | i | 1.8 | -9.5 | 10.4 | -162.3 | 0.702 | -33.7 | -47.0 | -18.0 | -1.3
O=C(NCCO)/C(=C\c1ccco1)NC(=O)c1ccco1 | i | -4.0 | -0.3 | -12.7 | 2.8 | 0.645 | 10.9 | 8.2 | 1.9 | 0.5
COc1ccc2c(C)cc(SCC(=O)Nc3ccc(Cl)cn3)nc2c1 | / | 1.0 | / | -29.5 | -5.8 | 0.696 | / | / | / | -0.3
CCOC(=O)N1CCN(S(=O)(=O)c2ccc(C)cc2)CC1 | i | 0.4 | 3.3 | -9.3 | 1.9 | 0.626 | 5.0 | 4.8 | 0.8 | -0.4
COc1ccc(OC)c(NC(=O)CSc2nc3c(c(=O)n(C)c(=O)n3C)n2C)c1 | i | -6.6 | 2.0 | 1.4 | 4.7 | 0.66 | -1.0 | -2.7 | -4.2 | 0.3
O=C(NC1CCCc2c1cnn2-c1cc(F)cc(F)c1)c1ccccn1 (stereo not given) | i | 1.7 | -4.9 | 0.7 | 2.2 | 0.685 | -0.7 | -5.0 | -0.4 | 0.4
Cc1ccc(-c2n[nH]c(=S)n2-c2ccccc2)cc1 | / | -5.7 | / | -13.1 | 1.9 | 0.681 | / | / | / | 0.2
CCC(C(=O)OC)(C(=O)OC)c1ccc([N+](=O)[O-])cc1 | i | -9.1 | -1.9 | -1.0 | 4.2 | 0.708 | 8.2 | 4.9 | -1.6 | 0.1
CCOC(=O)C1CCN(C(=O)c2ccc3c(SCC(=O)O)c4c(nc3c2)CCCC4)CC1 | i | -10.9 | -1.0 | -5.8 | 0.8 | 0.612 | 6.0 | -6.0 | -6.5 | 0.1
S=c1[nH]nc(-c2ccc3ccccc3n2)n1-c1ccc2c(c1)OCCO2 | i | 0.3 | -9.9 | -19.0 | 4.4 | 0.625 | -32.7* | -3.9* | -0.2* | 0.4
CCNc1ccc(C(=O)NN=C2CCCC2)cc1[N+](=O)[O-] | / | -0.9 | -1.3 | 1.9 | 5.4 | 0.703 | -5.5 | 10.0 | -3.1 | 0.9
N#CCCN(C(=O)CSc1nc(-c2ccccc2)cn1N)c1ccc(F)cc1 | / | -18.3 | / | 9.4 | -1.2 | 0.668 | / | / | / | 0.8
COC(=O)Nc1nc2c(C)cccc2s1 | i | 5.1 | -14.7 | 1.8 | 5.0 | 0.645 | / | / | / | 0.3
CC1CCCCC1NC(=O)CN1C(=O)COc2ccccc21 (stereo not given) | i | 8.8 | -0.4 | 2.8 | 2.0 | 0.669 | 1.2 | 6.1 | -1.3 | -0.8
CC(=O)c1ccc(S(=O)(=O)Nc2ccc(N3CCOCC3)cc2)cc1 | i | 2.0 | 1.8 | 0.4 | 1.3 | 0.711 | 1.1 | 3.3 | -1.1 | -0.2
CCCCSc1nc(N)c(NC(=O)c2ccco2)c(=O)[nH]1 | i | 1.8 | 2.8 | -3.7 | 1.9 | 0.773 | 1.1 | 10.2 | -1.2 | -0.2
CCc1cccc(CC)c1NC(=O)c1ccccc1 | i | 5.9 | -0.2 | -9.6 | 1.8 | 0.706 | -1.4 | 4.9 | 2.1 | -0.1
O=C(NCC1CCCO1)c1ccc(CS(=O)(=O)Cc2ccc(F)cc2)o1 (stereo not given) | / | 3.7 | / | -10.2 | 3.2 | 0.725 | / | / | / | 0.1
CC(C)(C)S(=O)(=O)c1cnc2c(-c3ccc(Cl)cc3)cnn2c1N | / | 2.0 | / | 0.0 | -51.3 | 0.676 | / | / | / | -0.3
CC(=O)c1ccccc1NC(=O)COC(=O)c1ccccc1NC(=O)c1ccccc1 | + | 1.1 | -1.0 | / | -2.6 | 0.71 | -8.2 | -12.9 | -3.5 | -0.4
COc1ccc(CCNC(=O)C(=O)NCC2OCCN2S(=O)(=O)c2ccc(OC)cc2)cc1 (stereo not given) | i | 4.5 | 7.3 | 4.1 | 5.7 | 0.735 | -2.9 | -6.8 | -3.8 | 0.2
Cc1cccc2[nH]c(SCC(=O)N3CCOCC3)nc12 | i | -3.7 | 0.6 | -19.4 | 0.8 | 0.724 | 12.5 | 11.3 | -2.6 | -0.9
COc1ccc(NS(=O)(=O)c2cc3c4c(c2)CCN4C(=O)CC3)c(OC)c1 | / | / | -0.9 | 0.8 | 5.3 | 0.695 | 1.0 | 4.1 | 0.6 | /
COC(=O)c1cccc(NC(=O)CCNC(=O)c2ccco2)c1 | i | -5.1 | -0.1 | -10.7 | 3.2 | 0.657 | 3.0 | -0.7 | 0.1 | -0.3
Cc1ccc(SCc2nnc(N)s2)cc1 | / | -10.0 | / | 3.0 | -3.5 | 0.728 | / | / | / | -0.7
CN(CC(=O)Nc1c(Cl)cccc1Cl)C(=O)Cn1[nH]c(=O)c2ccccc2c1=O | i | 0.7 | -5.4 | / | 2.6 | 0.698 | 7.0 | 11.9 | -0.2 | 0.0
CCn1nnnc1NCc1cccn1C | / | -6.1 | / | -11.2 | -2.3 | 0.643 | / | / | / | -0.2
CC(NC(=O)COc1cccnc1[N+](=O)[O-])c1ccc(F)cc1 (stereo not given) | i | -3.2 | 3.1 | -1.7 | 3.9 | 0.709 | 5.3 | 13.6 | -0.9 | 0.7
CS(=O)(=O)Nc1ccc(-c2cc(/C=C3\SC(N)=NC3=O)c[nH]c2=O)cc1 | i | 5.5 | / | -22.9 | -31.7 | / | 14.7 | 12.1 | 0.0 | -0.1
C/C(=N\NC(=O)C1(C)CC1(Br)Br)c1cccc(NC(=O)c2ccc(C)o2)c1 (stereo not given) | i | / | 3.7 | 13.5 | / | / | 0.3 | 0.9 | 0.3 | -0.3
O=C(c1cc(-c2ccc(Br)cc2)on1)N1CCCC1 | i | 0.4 | 0.8 | -5.1 | 0.1 | 0.699 | / | / | / | -6.0
CNS(=O)(=O)c1ccc2c(c1)NC(=O)C1CCCN21 (stereo not given) | / | -18.2 | / | 2.3 | -10.4 | 0.712 | / | / | / | 0.8
CCOc1ccc(CCNC(=O)C2CC(=O)N(Cc3ccc(C)cc3)C2)cc1OCC (stereo not given) | i | -5.7 | 1.4 | -1.3 | -0.2 | 0.678 | -6.5 | 2.2 | -0.6 | 0.9
Cc1ccc(NC(=O)CSc2nnc(CCC(=O)O)c(=O)[nH]2)cc1 | i | 0.3 | -2.0 | 2.8 | 1.5 | 0.662 | -2.9 | 2.2 | 0.3 | -0.3
COc1ccc(C2C(CC(=O)O)=C(Nc3ccccc3)C(=O)N2c2ccccc2)cc1 (stereo not given) | i | 1.5 | 1.4 | -7.7 | 2.8 | 0.697 | -0.1 | -2.6 | -0.3 | -0.5
CC(=O)Nc1ccc(NC(=O)COc2cc(C)cc3oc(=O)cc(C)c23)cc1 | i | 2.6 | 2.9 | 9.3 | -0.9 | 0.725 | -0.4 | 2.2 | -1.6 | 0.1
CCc1c(C)sc(NC(=O)c2ccco2)c1C(=O)N1CCOCC1 | / | -0.5 | / | -26.2 | 0.3 | 0.689 | / | / | / | 1.5
COC(C(=O)N/N=C(\C)CC(=O)Nc1ccc(Cl)cc1C)c1ccccc1 (stereo not given) | i | -11.5 | -0.2 | 8.2 | / | / | -6.3 | -3.1 | 1.3 | 1.4
OCCN1CCN(CC/C=C2/c3ccccc3Sc3ccc(Cl)cc32)CC1 | i | -6.1 | ? | / | 3.6 | / | / | / | / | 1.3
More results follow:
SMILES | FGF22 binding | Beta cell apopt | AF4-AF9 inh | T cruzi repl | UCH37 DUB inh | E coli growth | rRNA inh HTS | rRNA inh HTS OD600 | rRNA inh HTS RFP | Bfl-1 A1 inh
CC1CCCCC1NC(=O)Cn1c(CN2CCCCC2)nc2ccccc2c1=O (stereo not given) | / | -2.4 | / | 15.4 | 0.1 | 0.701 | / | / | / | -0.3
Cc1ccc(C2(C)NC(=O)N(CC(=O)NCCN3C(=O)S/C(=C\c4cccnc4)C3=O)C2=O)cc1 (stereo not given) | i | / | 1.9 | / | 6.6 | 0.648 | / | / | / | /
COc1ccc(NC(=O)COC(=O)CCCN2C(=O)c3ccccc3C2=O)cc1Cl | i | -6.1 | 2.8 | -5.7 | 4.1 | 0.69 | -15.2 | -27.6 | -0.6 | 0.4
Cc1c(NC(=O)c2cccc(NC(=O)COc3cccc(Br)c3)c2)c(=O)n(-c2ccccc2)n1C | i | -0.8 | 0.0 | / | 3.2 | 0.64 | -9.1 | -11.2 | 0.5 | 0.0
Cc1ccc(-c2c(C(=O)NNC(=S)NCC3CCCO3)csc2C)cc1 (stereo not given) | i | -1.8 | -1.2 | -6.0 | 4.7 | 0.649 | -14.2 | -18.2 | 10.4 | 0.2
CCOc1ccc(NC(=O)CSc2nnc(Cn3c(=O)sc4ccccc43)n2C)cc1 | i | -14.3 | -1.0 | / | 1.7 | 0.697 | 4.5 | 10.4 | 1.1 | 1.6

An excerpt, so the mix of outcomes need not match the whole.
